SARS PLpro yeast: blocks SARS-CoV papain-like protease in a yeast assay. S. cerevisiae expressing SARS-CoV PLpro, growth rescue; control for the full effect not named in the record. Potency, µM (highest dose often 32.9 µM), without a hit: at the top dose activity, positive = growth rescue. 330,000 compounds, 0.19% hits; further: 0% is about no effect; nearly all actives have a fitted effect of over 55% in size; growth read by luminescence after 48 h
Cruzain inh noDet: blocks cruzain activity in detergent-free assay | P25779 | purified cruzain, Z-FR-AMC fluorescence, no detergent | Potency, µM, inactives show max response, negative = inhibition, hits mostly inhibitors | 200,000 compounds, 2.3% hits | AID 1476; active means well fitted curve in the direction sought with a large enough effect; inconclusive means small, poorly fitted or top-dose-only effect, or another doubt; inactive means no such curve, though single readings can be large; an effect the other way counts as inactive or inconclusive;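 further: plate controls were enzyme without inhibitor for no effect and buffer without enzyme for full effect; nearly all actives have a fitted effect of over 40% in size; top concentration of the series not given in the record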
Target sequence (P25779 123-467 limits assumed): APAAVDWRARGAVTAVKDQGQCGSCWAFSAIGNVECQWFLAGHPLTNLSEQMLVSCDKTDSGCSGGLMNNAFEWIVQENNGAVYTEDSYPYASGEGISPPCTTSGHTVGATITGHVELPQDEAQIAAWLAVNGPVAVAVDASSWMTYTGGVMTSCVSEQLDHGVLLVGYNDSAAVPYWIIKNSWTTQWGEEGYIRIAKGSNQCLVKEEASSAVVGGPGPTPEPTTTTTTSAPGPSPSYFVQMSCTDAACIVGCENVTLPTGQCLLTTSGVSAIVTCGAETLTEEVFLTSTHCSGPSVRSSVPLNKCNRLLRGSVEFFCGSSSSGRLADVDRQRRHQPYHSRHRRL
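Purified cruzain at 1.5 nM, pre-incubated 15 min with compound at room temperature in 100 mM sodium acetate pH 5.5, 5 mM DTT, 0.00005% Triton X-100. Reaction started with 2 uM Z-FR-AMC; AMC fluorescence increase over 60 s gives rate.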
NS1 function inh: influenza NS1 inhibition; S. cerevisiae slowed by influenza A NS1, growth recovery by OD600; Potency, µM (titrated, usually from 46.1 µM), inactives show top-dose activity, positive = more growth; 270,000 compounds, 0.4% hits; further: actives are rising curves; nearly all actives have a fitted effect of over 50% in size
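OD600 was taken as the measure of yeast growth restored by compound in an NS1-expressing S. cerevisiae strain. Cells had been washed out of glucose medium and diluted 1:100 into galactose -URA medium, pH 6.0.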
Lassa entry inh: inhibitors of Lassa virus binding or cell entry. Lassa virus pseudotype entry inhibition, cell reporter; control for the full effect not named in the record. Potency, µM (doses to about 37.9 µM), for inactives: at the top dose activity change, negative = inhibition, usual class: inhibitors. 300,000 compounds, 1.2% hits; active means well fitted inhibition curve with a large enough effect; inconclusive means small, poorly fitted or top-dose-only effect, or effect the other way; inactive means flat fitted curve, though single readings scatter; tested in HEK293 cells; further: on the % scale 0 is the no-effect control and ±100 the full control effect; nearly all actives have a fitted effect of over 50% in size; luciferase read-out
Marburg entry inh: Marburg virus entry inhibition | Marburg virus pseudotyped entry inhibition, cell reporter; control for the full effect not named in the record; about a third of the inactives were read at about 46 µM | Potency, µM (series often up to 37.8 µM), for inactives: at the top dose activity change, negative = inhibition, actives largely listed as inhibitors | 300,000 compounds, 1.8% hits | AID 540276; active = well fitted inhibition curve with a large enough effect; inconclusive = small, poorly fitted or top-dose-only effect, or effect the other way; inactive = flat fitted curve, though single readings scatter; tested in HEK293 cells; about a fifth of its hits are not listed in these tables; further: on the % scale 0 is the no-effect control and ±100 the full control effect; luciferase read-out
Cruzain inh Det: blocks cruzain activity in presence of Triton detergent; Potency, µM, without a hit: max response, negative = inhibition, actives largely listed as inhibitors; purified cruzain, Z-FR-AMC fluorescence, 0.01% Triton; AID 1478; P25779; 200,000 compounds, 0.43% hits; active means well fitted curve in the direction sought with a large enough effect; inconclusive means small, poorly fitted or top-dose-only effect, or another doubt; inactive means no such curve, though single readings can be large; an effect the other way counts as inactive or inconclusive;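 further: plate controls were neutral wells for no effect and buffer without enzyme for full effect; nearly all actives have a fitted effect of over 40% in size; top concentration of the series not given in the record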
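Steps: dispense cruzain (1.5 nM final) in acetate buffer pH 5.5 with DTT and 0.01% Triton X-100; pin-transfer compounds; incubate 15 min RT; add Z-FR-AMC (2 uM final); read fluorescence every 30 s, using the 60 s intensity change.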
StopGo reporter: lowers the luciferase signal of an FMDV 2A StopGo reporter | human cells with a luciferase reporter of 2A StopGo recoding; control for the full effect not named in the record | Potency, µM (titrated, usually from 57.9 µM), for inactives: top-dose signal change, negative = less light | 410,000 compounds, 1.2% hits | AID 1159524; active = well fitted falling curve with a large enough effect; inconclusive = small, poorly fitted or top-dose-only effect; inactive = no such curve, though single readings can be large or run the other way; tested in HEK293T cells; further: on the % scale 0 is the no-effect control and ±100 the full control effect; nearly all actives have a fitted effect of over 45% in size; luciferase light after 4 h
RE007 growth inh: less growth of the S. pombe RE007 Vpr strain; S. pombe RE007 Vpr strain, BacTiter-Glo ATP luminescence, 24 h; control for the full effect not named in the record; Potency, µM (top dose mostly 92.2 µM), for inactives: at the highest dose activity change, negative = less growth; 360,000 compounds, 0.21% hits; active = well fitted falling curve with a large enough effect; inconclusive = small, poorly fitted or top-dose-only effect; inactive = no such curve, though single readings can be large or run the other way;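 further: on the % scale 0 is the no-effect control and ±100 the full control effect; nearly all actives have a fitted effect of over 50% in size; the assay follows cell death caused by Vpr and the record does not say whether a fall means rescue or toxicity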
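Fission yeast strain RE007, carrying one chromosomally integrated HIV-1 vpr copy, was seeded at OD 0.01 in PMG+AL medium with 23 nL pinned compound. After 24 h at 30 °C and 99% humidity, viability was read by BacTiter-Glo luminescence.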
Active calls of the source: *; ? = inconclusive; . = no result given; & = joins results of further samples; [ ] = remark or other dose. Unless noted, the call rests on the fitted dose curve; in most records, active means well fitted rising curve with a large enough effect; inconclusive means small, poorly fitted or top-dose-only effect; inactive means no such curve, though single readings can be large or run the other way. Potency means the concentration at half of the fitted maximal effect.

# | SMILES | SARS PLpro yeast | Cruzain inh noDet | NS1 function inh | Lassa entry inh | Marburg entry inh | Cruzain inh Det | StopGo reporter | RE007 growth inh
1 | CCN(C(=O)COc1cccc(-n2cnnn2)c1)C1CCS(=O)(=O)C1 (stereo not given) | 0% | . | . | 8%[46.1 µM] | 6%[46.1 µM] | . | ? | 5%
2 | COc1ccc(N2CCN(C(=O)C3Cc4ccccc4CN3C(=O)c3ccco3)CC2)cc1 (stereo not given) | 0% | . | . | ? | -28% | . | -16% | 24%
3 | CCOC(=O)C1C2C=CC3(CN(c4ccccc4CC)C(=O)C13)O2 (stereo not given) | . | . | -1% | -5% | 5%[46.1 µM] | . | -17% | 0%
4 | CCOC(=O)CSC1=Nc2ccccc2C2=NC(CC(=O)NCc3ccc4c(c3)OCO4)C(=O)N12 (stereo not given) | 2% | -6% | 11% | 17% | 7% | -0.3% | 14% | -14%
5 | Nc1c(C(=O)c2cccs2)sc2nsc(SCCN3CCCCC3)c12 | 1% | . | -1% | -31% | ? | . | 14% | -20%
6 | O=Cc1ccc(-c2cccc(C(=O)O)c2)o1 | -2% | . | . | 7%[46.1 µM] | -3%[46.1 µM] | . | 21% | 0%
7 | Cc1ccc(C(=O)CCC(=O)OCC(=O)NNC(=O)c2ccc([N+](=O)[O-])cc2)cc1 | -1% | . | . | 15% | ? | . | 0% | 4%
8 | O=C(CN(Cc1ccc(F)cc1)C(=O)CCC(=O)Nc1nccs1)NCc1ccc(F)cc1 | 2% | . | -5% | -18%[46.1 µM] | 1%[46.1 µM] | . | -3% | 5%
9 | NC(=O)c1cnn(-c2cccc(Cl)c2)c1N | 0% | . | -3% | . | . | . | 12% | 19%
10 | Cc1ccc2nsnc2c1S(=O)(=O)N1CCN(C)CC1 | -1% | . | 5% | 6%[46.1 µM] | -9%[46.1 µM] | . | -23% | -1%
11 | Cc1cccc2nc(CSc3nc4ccc([N+](=O)[O-])cc4[nH]3)c(Br)n12 | -18% | 3.2µM* | 15% | -11% | ? | -6.7% | ? | -8%
12 | O=C(NNc1cccc(Cl)n1)C1CC1 | 0% | . | 13% | . | . | . | -10% | 18%

Copied from above: entries 7 to 11
# | SMILES | SARS PLpro yeast | Cruzain inh noDet | NS1 function inh | Lassa entry inh | Marburg entry inh | Cruzain inh Det | StopGo reporter | RE007 growth inh
7 | Cc1ccc(C(=O)CCC(=O)OCC(=O)NNC(=O)c2ccc([N+](=O)[O-])cc2)cc1 | -1% | . | . | 15% | ? | . | 0% | 4%
8 | O=C(CN(Cc1ccc(F)cc1)C(=O)CCC(=O)Nc1nccs1)NCc1ccc(F)cc1 | 2% | . | -5% | -18%[46.1 µM] | 1%[46.1 µM] | . | -3% | 5%
9 | NC(=O)c1cnn(-c2cccc(Cl)c2)c1N | 0% | . | -3% | . | . | . | 12% | 19%
10 | Cc1ccc2nsnc2c1S(=O)(=O)N1CCN(C)CC1 | -1% | . | 5% | 6%[46.1 µM] | -9%[46.1 µM] | . | -23% | -1%
11 | Cc1cccc2nc(CSc3nc4ccc([N+](=O)[O-])cc4[nH]3)c(Br)n12 | -18% | 3.2µM* | 15% | -11% | ? | -6.7% | ? | -8%

The listing continues:
# | SMILES | SARS PLpro yeast | Cruzain inh noDet | NS1 function inh | Lassa entry inh | Marburg entry inh | Cruzain inh Det | StopGo reporter | RE007 growth inh
13 | CCOC(=O)C1=C(N)N2C(=O)CSC2=C(C(=O)OC)C1 | 3% | -7% | 14% | -10% | -5% | -1.2% | 3% | -15%
14 | Cc1ncc(CN2CCN(CCc3ccccc3)C(CCO)C2)s1 (stereo not given) | 1% | . | 4% | 14%[46.1 µM] | 5%[46.1 µM] | . | -4% | 7%
15 | Cc1cccc(S(=O)(=O)c2c(N)n(/N=C/c3ccco3)c3nc4ccccc4nc23)c1 | 7% | -22% | ? | -22% | ? | -4.8% | 20% | -1%
16 | Cc1cc(NC(=O)c2ccccc2F)n(C(C)(C)C)n1 | -1% | . | -3% | . | . | . | -7% | 4%
17 | O=C1CCCN1CCC12CC3CC(CC(C3)C1)C2 | -2% | . | -5% | . | . | . | -17% | 14%
18 | Cc1ccc(S(=O)(=O)CCC(=O)NCCN2C(=O)S/C(=C/c3ccc(F)cc3)C2=O)cc1 | -20% | ? | -8% | -9% | ? | -8.4% | 14% | ?
19 | CCOC(=O)c1ccccc1NC(=O)CN1C(=O)CC(c2ccccc2)Sc2ccccc21 (stereo not given) | . | -28% | . | . | -22%[46.1 µM] | -3.8% | 36%[activator] | .
20 | O=C(N/N=C/c1ccc2c(c1)OCCO2)c1ccncc1 | 0% | . | 7% | 10%[46.1 µM] | ? | . | 38% | 0%
21 | N#Cc1nc(COc2cccc(Cl)c2)oc1N1CCCC1 | -10% | -8% | -65% | . | . | -5.0% | -5% | 8%
22 | CCc1ccc(NC(=O)C2CCN(c3nnc(-n4c(C)ccc4C)s3)CC2)cc1 | . | -1% | . | -1%[46.1 µM] | 2%[46.1 µM] | -5.2% | ? | .
23 | COc1cccc(CNC(=O)Cn2c(=O)oc3ccccc32)c1OC | -3% | 0% | -4% | . | . | 0.6% | -16% | -6%
24 | CSc1nc2ccccc2cc1/C=C(\C#N)c1cccc(C)c1 | 4% | -27% | -1% | ? | -13% | -7.7% | ? | 13%
25 | O=C(CC(Cc1ccccc1)C(=O)O)Nc1ccc(F)cc1 (stereo not given) | 8% | . | -2% | . | . | . | 6% | 13%
26 | CCNC(=S)N1CCN(S(=O)(=O)c2cccc(C(F)(F)F)c2)CC1 | 5% | 17% | 3% | 3% | -10% | -3.5% | -3% | 5%
27 | CC(C)(C)Cc1nnc(NS(=O)(=O)c2ccc(F)cc2)s1 | 2% | 6% | -6% | ? | -17% | 3.8% | 6% | 2%
28 | CCCn1c(C)cc(-c2csc(NC(=O)CCc3nc4ccccc4c(=O)[nH]3)n2)c1C | 2% | . | . | 14% | ? | . | 0% | -10%
29 | COc1ccc(CCNC(=O)c2c(C)nn(-c3ccc(F)cc3)c2-n2cccc2)c(OC)c1OC | . | ? | . | ? | . | -6.6% | ? | .
30 | Cn1nc(-c2ccc(C(=O)NCC3CCCO3)cc2)c2ccccc2c1=O (stereo not given) | 9% | 0% | 3% | 1% | -8%&1% | 2.0% | -13% | 14%
31 | NC(=S)N1N=C(c2ccccc2)CC1=O | . | . | . | 14% | 23% | . | -23% | 16%
32 | O=C(CCc1nc2sc3c(c2c(=O)[nH]1)CCCC3)NCCOc1ccccc1 | 0% | . | . | ? | 20% | . | 2% | 4%
33 | O=c1n(CC2CO2)c(=O)n(CC2CO2)c(=O)n1CC1CO1 (stereo not given) | . | -3% | . | ? | 0.45µM* | 7.6% | -12% | 1%
34 | COc1cccc(NC(=O)CCC2CCN(C(=O)c3sccc3C)CC2)c1 | -3% | . | -12% | -15% | ? | . | -26% | -28%
35 | O=C1c2ccccc2C(=O)N1CC1CO1 (stereo not given) | . | . | . | 11%[46.1 µM] | 17%[46.1 µM] | . | -3% | 4%
36 | Cc1cccc(CN2CCN(C(c3ccccc3)c3ccc(Cl)cc3)CC2)c1 (stereo not given) | -68% | 4%&8% | -11% | -29% | ? | 0.5%&-10% | ? | 8%
37 | COC(=O)NNC(=O)CCCOc1ccc(Cl)cc1Cl | 0% | 4% | 7% | 11% | 0% | 0.6% | 0% | 1%
38 | O=C(c1ccco1)N(Cc1ccc([N+](=O)[O-])cc1)c1ccc(Br)cc1 | -9% | -18% | -21% | -2% | ? | -2.5% | ? | -2%
39 | Cc1cc(=O)oc2cc(Oc3ncccn3)ccc12 | -1% | -1% | -2% | 3% | 6%[46.1 µM] | 4.5% | 23% | 6%
40 | COc1cc2[nH]c(=S)n(Cc3ccc(F)cc3)c(=O)c2cc1OC | 0% | . | . | 0% | ? | . | -18% | 4%
41 | N#C/C(=C\c1cn[nH]c1-c1ccccc1Br)C(=O)O | -1% | . | . | 22% | ? | . | -12% | 17%
42 | COc1ccc(CCNC(=O)COC(=O)c2ccc[nH]c2=O)cc1 | 8% | 5% | 1% | -4% | 0% | 4.5% | 0% | 16%
43 | C=CCN1C(=O)/C(=C2\SC(N3CCOCC3)=NC2=O)c2cc(Br)ccc21 | -3% | ? | -35% | -28% | ? | -0.9% | -17% | 15%
44 | O=C(NCc1ccccc1Cl)c1ccc(Br)o1 | 1% | . | -7% | -15%[46.1 µM] | -15%[46.1 µM] | . | -2% | 0%
45 | Cc1sc(NC(=O)CN(Cc2ccccc2)C(=O)C2CC2)c(C(N)=O)c1C | 0% | . | 4% | . | . | . | -16% | 20%
46 | COC(=O)C(O)(c1ccc2c(c1)CCCN2)C(F)(F)F (stereo not given) | 1% | 7% | -1% | 18% | 12% | 3.8% | . | 3%
47 | O=C(CCCn1c(=O)[nH]c2ccsc2c1=O)N1CCCCC1 | 6% | -2% | 5% | -4% | 8% | 1.7% | 28% | -12%
48 | CCS(=O)(=O)N1Cc2ccccc2CC1C(=O)NCCc1ccccc1 (stereo not given) | 1% | . | 1% | -1%[46.1 µM] | -6%[46.1 µM] | . | 20% | -14%
49 | COc1ccc(Nc2nc(CC(C)=O)ns2)cc1 | 20% | 0% | -5% | ? | 16% | -1.9% | 40%[activator] | -23%
50 | COc1cc(CNCc2cccs2)ccc1OCc1ccccc1 | 1% | -1% | -1% | 11% | -84% | 2.8% | . | -2%
51 | CCOC(=O)C1(Cc2ccccc2)CCCN(Cc2ccc(OCC)c(CO)c2)C1 (stereo not given) | 1% | . | 5% | -9%[46.1 µM] | ? | . | -23% | 4%
52 | COc1cccc(NC(=S)N(CCN(C)C)C(C)c2ccncc2)c1 (stereo not given) | 1% | . | -3% | . | . | . | 27% | 0%
53 | Cc1ccc(CNC(=O)CSc2nc(N3CCCCC3)nc(N3CCCCC3)n2)cc1 | 2% | -6% | -68% | 3% | -54% | -5.7% | -21% | 18%
54 | CCCc1nnc(NC(=O)CCC(=O)NCCc2ccc(OC)c(OC)c2)s1 | -15% | -7% | -5% | 5% | ? | -0.6% | 18% | 9%

Source: PubChem
